Bioassay records deposited in PubChem by Johns Hopkins Ion Channel Center.
KCNQ2 enhance: potentiators of rat KCNQ2 potassium channel; AID 2239, 2010; 310,000 tested, 0.54% active; CHO-K1 KCNQ2, FluxOR thallium flux fluorescence; active compounds read high; Potassium voltage-gated channel subfamily KQT member 2 (Rattus norvegicus), O88943; B-score at 10 µM;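 active = fluorescence ratio B-score at least 3 SD of library B-scores, with initial fluorescence B-score within 3 SD, cut at about 5.3 in these data; same plate scores as AID 2156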;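 note: B-score of peak minus minimum over baseline fluorescence ratio after K+ and Tl+ stimulus; positive B-score means potentiation of KCNQ2 with more thallium influx and brighter signal; only the inactives scoring about 0 or higher are listed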
Target sequence (O88943 whole entry, looked up): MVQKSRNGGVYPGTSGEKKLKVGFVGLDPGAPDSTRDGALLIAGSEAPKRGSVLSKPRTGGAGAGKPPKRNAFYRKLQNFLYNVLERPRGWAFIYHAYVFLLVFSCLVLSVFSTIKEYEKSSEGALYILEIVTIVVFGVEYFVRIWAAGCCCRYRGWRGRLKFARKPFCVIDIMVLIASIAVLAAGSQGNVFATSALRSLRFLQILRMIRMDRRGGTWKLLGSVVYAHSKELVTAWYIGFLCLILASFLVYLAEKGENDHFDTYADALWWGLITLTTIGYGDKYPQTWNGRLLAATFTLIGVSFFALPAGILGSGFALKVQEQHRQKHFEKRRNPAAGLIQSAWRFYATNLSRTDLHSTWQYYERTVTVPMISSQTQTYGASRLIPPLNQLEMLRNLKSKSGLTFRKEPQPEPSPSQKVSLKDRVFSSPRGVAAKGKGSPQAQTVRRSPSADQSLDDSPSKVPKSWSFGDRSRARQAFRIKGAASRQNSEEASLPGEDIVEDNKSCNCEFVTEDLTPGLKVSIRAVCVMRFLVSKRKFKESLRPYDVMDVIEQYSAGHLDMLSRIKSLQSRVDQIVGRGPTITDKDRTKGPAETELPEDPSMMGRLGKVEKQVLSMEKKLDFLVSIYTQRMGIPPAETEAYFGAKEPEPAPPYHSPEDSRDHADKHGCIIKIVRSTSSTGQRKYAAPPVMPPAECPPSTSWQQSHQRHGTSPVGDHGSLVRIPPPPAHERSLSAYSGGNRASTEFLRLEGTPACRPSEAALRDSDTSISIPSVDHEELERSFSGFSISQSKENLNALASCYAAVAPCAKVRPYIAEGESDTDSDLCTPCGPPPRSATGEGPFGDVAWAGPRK
KCNQ2 enhance baseline: also measured in KCNQ2 enhance; calls as there; B-score; compound at 10 µM; measured here: initial fluorescence intensity artifact check;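 brightness before thallium and not channel activity; 0 = typical well and far values either way flag optical interference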
An asterisk follows results filed as active. Not all compounds are listed. The share of hits here may be higher or lower than overall.

SMILES	KCNQ2 enhance	KCNQ2 enhance baseline
Cc1cccc2cc(C#N)c(N3CCOCC3)nc12	0.03	0.77
Cc1ccc(CN2CCN(c3ccccc3)CC2)o1	2.5	-1.6
CC(C)(C)NC(=O)Cn1nnc(-c2ccc(OCc3c(F)cccc3Cl)cc2)n1	0.02	-2.4
CCOC(=O)C1CCCN(c2ccc(NC(=O)c3snc4c(=O)[nH]cnc34)cc2)C1 (centres undefined)	1.6	-0.9
COc1nnc(-c2ccc(C(=O)N3C[C@@H]4C[C@H](C3)c3cccc(=O)n3C4)cc2)c2ccccc12	0.63	0
CS(=O)(=O)N(CC(=O)NC1CC1)C1CCCCC1	0.01	0.03
CC1CN(CCc2ccccc2)C(C)C/C1=N/O (centres undefined)	1.4	-0.02
CCN(CC)CCN1C(=O)C2C(C(=O)Nc3cc(C)cc(C)c3)C3C=CC2(O3)C1C(=O)NC1CCCCC1 (centres undefined)	1.1	1.7
CC1CCN(CCn2c(=S)[nH]c3ccccc3c2=O)CC1	0.95	0.92
COc1ccc(Cl)cc1S(=O)(=O)N1CCN(C(=O)COc2ccccc2)CC1	0.82	2.2
O=C(O)Cc1ccccc1C(=O)O	0.88	-1.2
CCN(CC)CCNc1nc(C(F)(F)F)nc2c1nnn2Cc1ccccc1	2.2	-0.85
CCOC(=O)c1c(C)[nH]c(C)c1C(=O)COC(=O)c1ccc(Cl)c(S(=O)(=O)NCc2ccccc2)c1	0.14	0.1
O=C1CCCC(O)=C1N=Nc1ccc(S(=O)(=O)N2CCOCC2)cc1	0.36	1.9
CCc1ccc(NC(=O)CCc2nnc3ccc(N4CCCC4)nn23)cc1	0.79	0.18
COC(=O)c1ccc(/C=C/c2c(-c3ccsc3)oc3ccc(N4CCOCC4)cc23)cc1	2	2.7
CC(=O)Nc1ccc(S(=O)(=O)Nc2nc3ccc([N+](=O)[O-])cc3s2)cc1	0.02	1.2
O=C(c1ccc(Cn2cc([N+](=O)[O-])cn2)o1)N1CCCCCC1	0.12	-0.37
CCOC(=O)c1c2n(c3c(NCc4ccccc4)ncnc13)CCCC2	1.6	-0.04
COc1cc(NS(=O)(=O)c2ccc(NC(=O)COc3cccc(C)c3)cc2)nc(OC)n1	1.2	0.8
O=C(NCc1ccccn1)c1ccc2nc(C3CCCCC3)oc2c1	1.4	1.1
CCOC(=O)C1CCCN(C(=O)c2cc(S(=O)(=O)N(C)C)ccc2N2CCCC2)C1 (centres undefined)	0.44	0.84
CCS(=O)(=O)N1Cc2ccccc2CC1C(=O)Nc1nc(C)cs1 (centres undefined)	0.89	-1.3
O=C(NC1CCCC1)c1c(O)nc2sccn2c1=O	1.4	1.1
CC(NC(=O)Nc1cccc(F)c1)c1ccc2c(c1)OCO2 (centres undefined)	4.9	0.44
O=C(/C=N/NC(=O)c1ccccc1Br)c1ccccc1	0.35	-0.36
O=C(COC(=O)c1ccccc1Sc1ccc(C(F)(F)F)cc1[N+](=O)[O-])NC(=O)NC1CCCC1	1.5	-0.01
CC1CCN(Cc2nnnn2CCCC(=O)NC(c2ccccn2)C(F)(F)F)CC1 (centres undefined)	0.15	0.3
COc1ccc(-c2nnn(CC(=O)N(c3cccc(O)c3)C(C)C(=O)NC3CCCC3)n2)cc1OC (centres undefined)	0.82	1.3
c1csc(-c2noc(CN3CCN4CCCC4C3)n2)c1 (centres undefined)	0.65	-0.33
CC(=O)Nc1ccc(SCC(=O)c2cc(C)ccc2C)cc1	2.2	-0.48
Cc1n[nH]c(=O)c2c(NC(=O)CSc3ccc(F)cc3)oc(C)c12	2.7	-3.7
COc1ccc(OC)c(C(=O)Nc2ccc3[nH]ccc3c2)c1	0.28	-0.58
OC1(CNCc2ccccc2)C2CC3CC(C2)CC1C3 (centres undefined)	0.58	-0.74
Cc1ccc(CN2C(=O)CCC2C(=O)NCCCN2CCCC(C)C2)cc1 (centres undefined)	1.2	0.72
C/C(=N\NS(=O)(=O)c1ccc(C)cc1)c1cccs1	1.6	-0.95
O=C(Nc1cccs1)OCCN1CCN(Cc2ccccc2)CCC1=O	0.39	-0.02
CCCCc1c(CCC)c(=N)c2ccccc2n1C	0.09	0.48
O=S(=O)(NCc1ccc2c(c1)OCO2)c1cccc2nsnc12	1.4	-2
O=C(Nc1ccc(OCC(=O)N2CCOCC2)cc1)c1ccccc1F	0.01	-2.9
CN1CCN(C(=O)c2c(O)c3cccc4c3n(c2=O)CCC4)CC1	0.72	-0.47
CCOC(=O)C1=C(C)Nc2ncnn2C1c1ccc(N(C)C)cc1 (centres undefined)	0.01	-0.76
CC(C)NC(=O)C(=O)NNC(=O)CCc1ccccc1	0.51	0.18
O=[N+]([O-])c1cccc(S(=O)(=O)N2CCN(S(=O)(=O)N3CCCCCC3)CC2)c1	3.6	-1.1
N#CC1=C(N)C(C#N)(C#N)C(c2cccnc2)C2CC(c3ccccc3)CC=C12 (centres undefined)	1.6	-0.73
COc1cc(OC)cc(C(=O)Nc2ccc(S(=O)(=O)N3CCOCC3)cc2)c1	1.4	0.55
CC(OC(=O)Cn1[nH]c(=O)c2ccccc2c1=O)C(=O)Nc1ccc(F)cc1 (centres undefined)	0.69	0.62
CC(=O)N/C(=C\c1ccccc1)C(=O)Nc1ccccc1C	0.52	0.01
COC(=O)c1ccc(NC(=O)C2CCCN(S(=O)(=O)c3cnc[nH]3)C2)cc1 (centres undefined)	0.11	0.32
CC(=O)c1ccc(N2CCN(C(=O)CCNC(=O)Cn3ccc4ccccc4c3=O)CC2)cc1	0.75	1.6
COc1ccc(S(=O)(=O)N2CCOC2CNC(=O)C(=O)NCCc2ccc(OC)c(OC)c2)cc1C (centres undefined)	1.1	-0.35
C=CCSc1nc2sc(C)c(C)c2c(=O)n1N	0.39	-0.49
COc1ccc(/C=N/NC(=O)c2ccccc2[N+](=O)[O-])cc1CN1CCc2cc(OC)c(OC)cc2C1C (centres undefined)	0.47	0.29
COc1cccc2c(N/N=C/c3ccco3)cc(C)nc12	2.4	0.79
COCCOC(=O)C1=C(C)Nc2ncnn2C1c1ccco1 (centres undefined)	0.63	-0.33
CN(c1ccc(C(=O)NCc2ccccn2)cc1)S(=O)(=O)c1ccc(Cl)cc1	1.7	-0.45
COc1ccccc1CNC(=O)CSc1nnc2ccc(-c3cccnc3)nn12	0.09	2.1
COc1ccc(-n2nnnc2SCC(=O)Nc2cccc(O)c2)cc1	1.1	0.24
Cc1nc(N2CCN(c3ccccn3)CC2)c2c(C)c(C(=O)N3CCN(c4ccc(F)cc4)CC3)sc2n1	0.01	-0.85
CCc1ccc(C(C(=O)NCCOC)N(C(=O)Cn2nnc3ccccc32)c2cccnc2)cc1 (centres undefined)	0.59	0.24

Five compounds from above, sorted by count of non-hydrogen atoms, smallest number first:
SMILES	KCNQ2 enhance	KCNQ2 enhance baseline
C=CCSc1nc2sc(C)c(C)c2c(=O)n1N	0.39	-0.49
COc1ccc(-n2nnnc2SCC(=O)Nc2cccc(O)c2)cc1	1.1	0.24
CN(c1ccc(C(=O)NCc2ccccn2)cc1)S(=O)(=O)c1ccc(Cl)cc1	1.7	-0.45
COc1ccccc1CNC(=O)CSc1nnc2ccc(-c3cccnc3)nn12	0.09	2.1
CC(=O)c1ccc(N2CCN(C(=O)CCNC(=O)Cn3ccc4ccccc4c3=O)CC2)cc1	0.75	1.6

The list continues.
SMILES	KCNQ2 enhance	KCNQ2 enhance baseline
Cc1ccc(-c2cc(C(=O)N/N=C/c3c(C)nn(-c4ccccc4)c3C)n[nH]2)s1	0.24	-0.09
COc1cccc2c1OC[C@@H](CO)[C@H]2N(C)C(=O)Nc1ccccc1	0.05	0.79
Cc1ccnc(NCc2ccccc2O)c1	1.2	0.01
O=C(CS(=O)(=O)c1ccccc1)N1CCCCCC1	1.2	0.52
C[C@@H](C(=O)NCc1ccco1)N1C(=O)N2CCc3c([nH]c4ccccc34)[C@@]2(C)C1=O	0.8	1.1
Cc1cc(NC(=O)CSc2nc(-c3cccs3)cc(C(F)(F)F)n2)no1	0.12	-0.34
Cc1ccc(C(=O)Nc2ccccc2C(=O)NCC2CCCO2)cc1 (centres undefined)	1.4	2.2
COc1ccc(C(=O)Cn2nnc(-c3ccccc3NC(=O)c3ccco3)n2)cc1	0.28	0.34
CC(=O)NCc1ccc(C(=O)CSc2nnc(-c3ccncc3)n2Cc2ccccc2)o1	0.11	-0.72
CS(=O)(=O)c1ccc(Cl)c(NC(=O)CSc2n[nH]c(N)n2)c1	1.7	0
COC(=O)c1[nH]c2cc(OC)c(OC)cc2c1NC(=O)c1cccc(OC)c1	0.81	-0.67
CCCCNC(=O)c1onc(CSc2cccc(OC)c2)c1C(=O)NCCCC	0.35	-1.7
NCCCCCc1nnc(SCc2ccc(Cl)cc2Cl)o1	0.12	-0.11
O=C(c1cccnc1)N1CCN(C/C=C/c2ccccc2)CC1	0.38	-0.82
O=C(NCCS(=O)(=O)c1ccc(Br)cc1)c1ccc(F)cc1	1	0.04
COc1ccc(Cc2nn3c(-c4cc(OC)c(OC)c(OC)c4)nnc3s2)cc1	1.1	-3.7
COc1ccc(C(=O)Nc2ccc(S(=O)(=O)N3CCCC3)cc2)cc1[N+](=O)[O-]	2	0.5
O=c1c2ccccc2nc2n1C(CSCc1cccc(C(F)(F)F)c1)CS2 (centres undefined)	0.88	-1.4
COc1ccc(CO/N=C/c2c(C)[nH]c(=O)[nH]c2=O)cc1	0.58	1.6
COC1CCN(C(=O)c2ccc(OC3CCN(CCc4ccccc4)CC3)cc2)CC1	0.25	0.08

Rewritten as comma-separated lines: entries from further up.
SMILES,KCNQ2 enhance,KCNQ2 enhance baseline
Cc1ccnc(NCc2ccccc2O)c1,1.2,0.01
COc1ccc(CO/N=C/c2c(C)[nH]c(=O)[nH]c2=O)cc1,0.58,1.6
O=C(c1cccnc1)N1CCN(C/C=C/c2ccccc2)CC1,0.38,-0.82
Cc1cc(NC(=O)CSc2nc(-c3cccs3)cc(C(F)(F)F)n2)no1,0.12,-0.34
COc1cccc2c1OC[C@@H](CO)[C@H]2N(C)C(=O)Nc1ccccc1,0.05,0.79
COc1ccc(Cc2nn3c(-c4cc(OC)c(OC)c(OC)c4)nnc3s2)cc1,1.1,-3.7

Continuation:
SMILES	KCNQ2 enhance	KCNQ2 enhance baseline
COc1ccc(NC(=O)N[C@@H](Cc2ccccc2)C(=O)NN)cc1	0.9	-0.02
O=C(Cn1nnc(-c2ccc(Cl)cc2)n1)NCC1CCCCC1	0.86	0.01
Cc1ccc(N2C(=O)[C@@H]3Cc4ccccc4CN3C2=O)cc1	0.04	4.6
CCOC(=O)C1=NNC2(c3ccc(C)cc3)C(=O)N(c3ccccc3)C(=O)C12 (centres undefined)	1.3	2.1
COc1ccc(-c2csc(NC(=O)CN3C(=O)NC4(CCCC4)C3=O)n2)c(OC)c1	1.9	-0.26
COc1ccc(-n2c(SCC(=O)NCC3CCCO3)nc3c([nH]c4ccccc43)c2=O)cc1 (centres undefined)	1	-0.12
CC(=O)NC(CCS(C)(=O)=O)C(=O)Nc1cccc(C)c1 (centres undefined)	0.27	0
CCCOc1cccc(C(=O)Nc2nnn(CCC)n2)c1	0.67	0.75
COc1ccc(OC)c(C2SCCN2S(C)(=O)=O)c1 (centres undefined)	0.66	0.28
COc1cc(SC)ccc1C(=O)OCC(=O)NCCC1=CCCCC1	0.07	-0.87
CCOc1c2ccc(C(=O)NCCCCc3ccccc3)cc2nn1CC	0.05	-1.4
CC(=O)c1ccc(S(=O)(=O)Nc2cccc(-c3ccc(N4CCOCC4)nn3)c2)cc1	0.64	-0.61
CC1CCN(S(=O)(=O)c2nnc(NC(=O)c3cccc([N+](=O)[O-])c3)s2)CC1	0.02	-0.23
CN1CCN(CCc2cn3ncc(C#N)c3nc2-c2ccc(F)cc2)CC1	0.22	0.23
Cc1ccc(N(CC(N)=O)C2SC(=O)NC2=O)cc1 (centres undefined)	0.82	-0.27
COc1nc(N(C)C)nc(N(C#N)CCOC(C)=O)n1	1	-1.5
c1ccc(CSc2nnc3c4ccccc4c4ccccc4c3n2)cc1	0.15	0.98
Cc1cccc(OCC(=O)N/N=C/c2cn[nH]c2-c2ccc(Cl)c(Cl)c2)c1	0.55	0.02
Cc1nnsc1C(=O)Nc1ccc(S(=O)(=O)N2CCCC(C)C2)cc1 (centres undefined)	0.36	-1.6
COc1ccc(N2CCN(C(=O)CCCCn3c(=O)[nH]c4ccsc4c3=O)CC2)cc1	0.91	-1.1
Cc1cccc(N2CCN(c3nc4ccccc4n4cnnc34)CC2)c1C	1	-0.09
O=C(O)c1cccc(NC(=S)NC(=O)c2ccc(-c3ccccc3)cc2)c1	2	0.51
O=C(Nc1nnc(C2CC2)s1)c1cccs1	1	-0.24
CCOC(=O)Cc1csc(SC(C)C(=O)NCC(=O)Nc2ccc(F)c(F)c2F)n1 (centres undefined)	0.97	-0.67
CN(C)C(=O)N1CCCC(C(=O)NCc2cccs2)C1 (centres undefined)	0.74	1.3
Cc1cc(Br)ccc1NC(=O)CN(C)C(=O)c1cc(S(=O)(=O)N(C)C)ccc1N1CCCC1	0.25	-0.27
N#CC(c1cccc(Cl)c1)c1ccc2c(C(F)(F)F)cc(C(F)(F)F)nc2n1 (centres undefined)	15*	1*
O=C(NCCCc1ccccc1)c1cnc2n(c1=O)CCS2	2.3	-0.44
Cc1cnc(N)c2c(=O)oc3ccccc3c12	0.06	0.78
COc1cc(NC(=O)c2ccc(C)cc2)ccc1NC(=O)c1cc2ccccc2o1	0.68	-2
CC(C)Cn1c(N)c(C(=O)CSc2nc3ncc(Cl)cc3[nH]2)c(=O)n(C)c1=O	1.7	-0.16
Nc1nnc(Cc2c[nH]c3ccccc23)s1	1.3	0.01
